From PubChem BioAssay
KCNQ2 enhance: potentiators of rat KCNQ2 potassium channel | hit rate 0.54% among 310,000 | CHO-K1 KCNQ2, FluxOR thallium flux fluorescence; stronger effect = higher value | B-score at 10 µM | AID 2239;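 active means fluorescence ratio B-score at least 3 SD of library B-scores, with initial fluorescence B-score within 3 SD, cut at about 5.3 in these data; same plate scores as AID 2156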;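 further: B-score of peak minus minimum over baseline fluorescence ratio after K+ and Tl+ stimulus; positive B-score means potentiation of KCNQ2 with more thallium influx and brighter signal; only the inactives scoring about 0 or higher are listed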
Target sequence (O88943 whole entry, looked up): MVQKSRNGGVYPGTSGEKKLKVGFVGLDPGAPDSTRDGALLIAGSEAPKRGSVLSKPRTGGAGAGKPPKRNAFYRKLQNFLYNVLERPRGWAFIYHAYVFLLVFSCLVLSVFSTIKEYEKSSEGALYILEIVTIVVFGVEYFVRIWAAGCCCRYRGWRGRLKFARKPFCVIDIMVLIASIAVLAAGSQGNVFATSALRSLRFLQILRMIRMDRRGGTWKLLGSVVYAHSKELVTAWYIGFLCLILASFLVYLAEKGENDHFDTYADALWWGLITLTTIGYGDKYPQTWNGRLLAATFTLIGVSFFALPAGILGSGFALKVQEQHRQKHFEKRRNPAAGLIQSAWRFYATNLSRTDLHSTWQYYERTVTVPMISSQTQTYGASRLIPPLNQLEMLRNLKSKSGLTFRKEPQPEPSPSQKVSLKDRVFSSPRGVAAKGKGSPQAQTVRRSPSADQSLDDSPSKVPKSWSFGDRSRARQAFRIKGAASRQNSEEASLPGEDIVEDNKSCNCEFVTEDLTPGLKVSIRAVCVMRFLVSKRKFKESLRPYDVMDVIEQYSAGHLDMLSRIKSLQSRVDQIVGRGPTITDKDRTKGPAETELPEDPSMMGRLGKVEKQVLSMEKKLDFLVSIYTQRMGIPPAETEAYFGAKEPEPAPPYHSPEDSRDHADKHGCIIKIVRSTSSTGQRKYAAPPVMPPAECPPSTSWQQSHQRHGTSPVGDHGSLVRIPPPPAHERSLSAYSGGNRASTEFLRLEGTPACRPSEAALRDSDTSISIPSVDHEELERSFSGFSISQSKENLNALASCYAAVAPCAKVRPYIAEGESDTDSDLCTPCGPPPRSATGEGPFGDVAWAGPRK
KCNQ2 enhance baseline: also measured in KCNQ2 enhance; calls as there; B-score; compound at 10 µM; measured here: initial fluorescence intensity artifact check;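 brightness before thallium and not channel activity; 0 = typical well and far values either way flag optical interference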
* = called active by the depositor. A portion of the library; count on the stated rates, not on these rows.

mol | KCNQ2 enhance | KCNQ2 enhance baseline
COc1cccc(/C=N/NC(=O)c2c(C)nc3ccc(Cl)cn23)c1OC | 1.2 | -0.22
CC1=NN(C(=O)c2ccc(C)cc2)C(O)(C(F)(F)OC(F)(F)F)C1 (stereo not given) | 2.8 | -0.11
COc1cccc(/C=N/n2c(COc3ccccc3)n[nH]c2=S)c1O | 2.1 | -1
N#Cc1c(NC(=O)CSc2nc(N)cc(=O)[nH]2)sc2c1CCCC2 | 1.5 | 0.3
O=C(c1ccco1)n1nc(-c2cccnc2)nc1NCc1ccco1 | 0.38 | -0.09
COc1ccccc1/C=C1\SC(=S)N(CCC(=O)Nc2nnc(C)s2)C1=O | 0.68 | 0.41
COc1ccc(CCNC(=O)C/C(C)=N/NC(=O)c2ccc(Cl)cc2Cl)cc1OC | 1 | -0.47
C/C(=N\NC(=O)c1c[nH]c2ccccc12)c1ccco1 | 0.79 | 0.36
CC(=O)Nc1ccc(NC(=O)C(C)OC(=O)C2CC3C=CC2C3)cc1 (stereo not given) | 0.53 | 0.25
CC1CCCCC1NC(=O)C1CCN(S(=O)(=O)N2CCOCC2)CC1 (stereo not given) | 0.1 | -1.2
CC(C)(C)c1ccc(C(=O)Nc2ccccc2C(=O)NCCN2CCOCC2)cc1 | 0.26 | 1.6
CC(=C/c1ccccc1)/C=N/n1c(-c2ccco2)n[nH]c1=S | 2.1 | -1.1
NC(=O)C1(N2CCCCC2)CCN(C(=S)Nc2ccc(F)c(Cl)c2)CC1 | 1.2 | 2.4
Nc1nc(Cl)cc(Oc2ccccc2F)n1 | 0.7 | -1.4
Cc1cc(C)c(NC(=O)CN2CCCCCC2)c(C)c1 | 0.24 | -0.22
COc1ccc(Br)cc1S(=O)(=O)Nc1ccc(Cl)cn1 | 0.51 | -2.8
CC(C[N+](C)(C)C)OC(=O)C1(c2ccccc2)CCCC1 (stereo not given) | 0.11 | 0.12
O=C(COC(=O)COc1ccc(Nc2ccccc2)cc1)NCc1ccco1 | 1.6 | -0.94
Cc1ccc(CNC(=O)CCC2CCCN(Cc3c(C)nn(C(C)C)c3C)C2)o1 (stereo not given) | 0.27 | -0.16
NC(=O)c1ccc(-c2ccc(Br)cc2)o1 | 0.9 | 0.41
COc1ccccc1N(C)S(=O)(=O)c1ccc(C(=O)NC2CCCCCC2)cc1 | 0.31 | 0.02
CCCCC(CCCC)=N/N=C/c1c(O)n(CC)c2cc(C3=NNC(=O)CC3)ccc12 | 0.84 | -0.67
CN1CCN(C(=O)/C(=C\c2cccs2)NC(=O)c2ccco2)CC1 | 0.34 | 0.03
Cc1cc(N2CCN(C(=O)c3ccco3)CC2)n2nc(-c3cccc(Cl)c3)cc2n1 | 0.05 | 1.3
CC(C)NC(=O)CC(c1ccccc1)c1cc(Br)ccc1O (stereo not given) | 2.8 | -0.05
CCOc1cc(-n2nc(C)c(C#N)c2N)nc(SC)n1 | 0.23 | -1.3
CCOC(=O)c1nn(-c2cccc(Cl)c2)c(C)c1C(C)=O | 1.2 | 0.05
O=C(Nc1ccc(F)cc1)c1ccc(S(=O)(=O)NCc2cccnc2)cc1 | 0.95 | -0.88
COC(=O)COc1ccc(S(=O)(=O)N2CCCCCC2)cc1C | 0.09 | -0.86
O=C(Nc1cc(C(=O)N2CCCC2)ccc1N1CCCC1)C1CC1 | 0.35 | 0.87
COc1ccc(CC(=O)Nc2ccc(S(=O)(=O)Nc3onc(C)c3C)cc2)cc1OC | 0.11 | -0.77
COc1ccc(Br)cc1CNC(=O)C1CCCN(S(C)(=O)=O)C1 (stereo not given) | 0.46 | 1.3
O=C1CC(N2CCOCC2)C(=O)N1Cc1ccc(N2CCCC2=O)cc1 (stereo not given) | 2 | 0.05
Cc1ccc(-c2noc(CNS(=O)(=O)c3ccccc3)n2)cc1 | 0.89 | -1.3
CCOC(=O)N1CCN(C(=O)c2cc(C)c3c(C)nn(-c4ccccc4)c3n2)CC1 | 0.33 | 1.5
CC1CCN(C(=O)COC(=O)[C@H](C)NS(=O)(=O)/C=C/c2ccccc2)CC1 | 0.19 | 0.2
COc1cccc(C(=O)Nc2nnc(-c3ccccc3)s2)c1OC | 0.01 | -2.1
C=CCn1c(SCC(=O)NC2(C#N)CCCCC2)nnc1-c1ccncc1 | 1.6 | -0.26
N=c1sccn1CC(=O)Nc1ccccc1Oc1ccccc1 | 1.1 | 0.37
CC(C)(C)C(=O)NCCn1ccc2ccccc21 | 0.84 | -0.03
CCCCSc1nsc(NC(C)=O)n1 | 1.3 | 0.78
Cc1n[nH]c(C)c1CCOc1ccc(C(C)C)cc1 | 1.8 | 0.68
CC1CN(C(=O)c2ccccc2Oc2ccccc2)CC(C)O1 (stereo not given) | 0.04 | 0.03
S=C(Nc1ccc2c(c1)OCO2)NC1CCN(Cc2ccccc2)CC1 | 0.2 | -0.9
Brc1c(NC2=NCCN2)ccc2nccnc12 | 0.58 | 1.4
CC1CCCC(=C\c2ccccc2)/C1=N/O (stereo not given) | 0.15 | 0.53
CCCS(=O)(=O)NCCc1cc2ccc(C)cc2[nH]c1=O | 0.44 | -0.43
CCN(c1cccc(C)c1)S(=O)(=O)c1ccc(-c2ccc(=O)[nH]n2)o1 | 1.8 | -0.79
CSCC[C@H](NC(=O)C1CCN(S(=O)(=O)c2ccc(C)cc2)CC1)C(=O)NCc1ccco1 | 1.1 | -0.67
CC(/C=C/C=C/c1ccccc1)=N/NC(=O)CNc1ccc(C)cc1 | 0.7 | -0.53
Cc1ccc(C)c(NS(=O)(=O)c2c(C)nc3sccn3c2=O)c1 | 0.23 | -0.72
CC(/C=N\NC(=O)c1cccnc1)c1ccccc1 (stereo not given) | 1.6 | -0.75
CCOC(=O)c1ccc2nc(NC(=O)c3ccco3)sc2c1 | 3.1 | -1.9
Fc1ccc2nc(-c3ccccc3)nc(SCc3nnc(-c4ccccc4)o3)c2c1 | 0.82 | 0.54
COc1ccc(C(=O)Nc2nnc(C3=COCCO3)o2)cc1 | 5 | -2.4
Cc1nc(-c2ccc(C(=O)N3CCOCC3)cc2)cs1 | 0.17 | 1.2
Cc1nnc(SC(C)C(=O)Nc2ccc(S(=O)(=O)NC3CCCCC3)cc2)s1 (stereo not given) | 0.4 | -1.1
CCCCC(=O)NC1(C(F)(F)F)C(=O)N(CC(C)C)C2=C1C(=O)CC(C)(C)C2 (stereo not given) | 0.31 | -0.03
COc1cccc(N=Nc2c(=O)[nH]n3c(C)cc(C)nc23)c1 | 3.9 | -3.2
COc1ccnc(-n2cccc2C#N)c1C#N | 0.11 | -1.1

Later entries.
mol | KCNQ2 enhance | KCNQ2 enhance baseline
Cc1ccc(NC(=O)c2oc3ccccc3c2C)nc1 | 0.34 | -0.66
C=C1CC[C@@H]2[C@](C)(CO)[C@H](O)CC[C@@]2(C)[C@@H]1/C=C/C1=CCOC1=O | 1.9 | -1.1
COc1ccc(OCCCCn2c(CO)nc3ccccc32)cc1 | 0.55 | -0.98
CN1CCN(C(=O)CSc2nc(-c3ccco3)cc(C(F)(F)F)n2)CC1 | 0.86 | -2.3
CSc1ccccc1OCc1cc(C(=O)NCCc2ccco2)no1 | 0.2 | 0.01
Cc1ccccc1N(CC(=O)N/N=C/c1cc(C)n(-c2ccccc2C)c1C)S(C)(=O)=O | 1.1 | -0.17
CCC(=O)N/N=C(\C)CC(=O)Nc1ccc2ccccc2c1 | 3.4 | 5.9
Cc1ccc(S(=O)(=O)N2CC3(C)CN(S(=O)(=O)c4ccc(C)cc4)CC(C)(C2)C3O)cc1 (stereo not given) | 1.3 | 0.42
O=C(/C=C/c1ccco1)NCCCN1CCOCC1 | 0.04 | 0.47
CS(=O)(=O)N1CCN(c2ccc(NC(=S)NC(=O)c3ccccc3[N+](=O)[O-])cc2)CC1 | 1.8 | -1.6
CCn1c(SCC(=O)Nc2ccc(F)cc2F)nc2c(c1=O)SCC2 | 1 | -0.02
COc1cc(NC(=S)Nc2cccc(C)n2)cc(OC)c1OC | 0.45 | 0.16
O=C(COC(=O)Cc1c(F)cccc1Cl)NC1CCS(=O)(=O)C1 (stereo not given) | 0.16 | -1.3
CC(C)OC(=O)c1ccc(COC(=O)c2cccc(-c3nnc(-c4ccccc4)o3)c2)cc1 | 0.6 | 1.2
C=CCNc1nc2c(c(=O)[nH]c(=O)n2C)n1CCCc1ccccc1 | 1.9 | -0.01

Other results follow.
| SMILES | KCNQ2 enhance | KCNQ2 enhance baseline |
| --- | --- | --- |
| CCCCNC(=O)C1CCCN(S(=O)(=O)c2ccc(S(=O)(=O)NCC(C)C)cc2)C1 (stereo not given) | 0.75 | 0 |
| Oc1c(Br)cc(Br)cc1CNc1ccc(F)cc1 | 0.16 | -0.18 |
| Cc1nc2cc(-c3ccsc3-n3c(C)ccc3C)[nH]n2c(=O)c1Cl | 5.1 | -0.82 |
| CSc1ccc(C(c2c(C(=O)O)[nH]c3ccccc23)c2c(C(=O)O)[nH]c3ccccc23)cc1 | 0.01 | -1.7 |
| CCOc1cc(C#N)c(NC(=O)c2cccnc2Cl)cc1OCC | 0.06 | 0.31 |
| CN1CCC(=O)N([C@H](CC#N)c2ccccc2)CC1 | 1.4 | -1.4 |
| CCOc1cccc(/C=N/N2CCN(c3ccc(Cl)cc3)CC2)c1O | 0.47 | 0.18 |
| COc1ccc(CNCCCSc2ncccn2)c(OC)c1 | 1.2 | -0.22 |
| Cc1nc2nc(C)c(NS(=O)(=O)c3ccc(CC(C)C)cc3)c(=O)n2[nH]1 | 0.35 | 0.69 |
| Cc1ccc(-c2nc(Cl)nc3ccccc23)cc1 | 0.51 | 0.22 |
| CCOC(=O)N1CCC(N2C(=O)c3ccc(C(=O)Nc4ccc(OC)c(OC)c4)cc3C2=O)CC1 | 1.4 | -0.01 |
| COc1cccc(NC(=O)CNS(=O)(=O)c2ccc3nc(C)sc3c2)c1 | 0.49 | -1.6 |
| CN(Cc1cc([N+](=O)[O-])ccc1Cl)C(=O)C[n+]1ccccc1 | 0.38 | 0.3 |
| N/C(=N\OC(=O)c1ccccc1)c1cccnc1 | 1.6 | 0.76 |
| O=C(c1ccc(CN2CCc3ccccc3C2)cc1)N1CCCCC1 | 1.3 | 0.89 |
| Cc1ccc(S(=O)(=O)n2nnc3ccccc32)c(C)c1C | 0.32 | -0.83 |
| CCOC(=O)[C@@H]1[C@H]2COc3cc(OC)ccc3[C@@H]2N2C(=O)N(c3ccc(Cl)cc3)C(=O)[C@@]12C | 0.16 | -1.6 |
| COc1ccc(C(=O)Nc2cc3c(cc2C#N)OCO3)cc1S(=O)(=O)NCc1ccco1 | 1.4 | 1.4 |
| CC(=O)N=C1C=CC(=CN(O)C(C)(C)Cc2ccccc2)C=C1 | 0.97 | -0.04 |
| O=C(NCCN1CCCCC1)Nc1ccccc1 | 1.2 | -1.2 |
| COc1ccc(C(=O)C[n+]2ccc3c(c2)nc(-c2cc(OC)c(OC)cc2OC)n3C)cc1 | 0.82 | 3.8 |
| CCN(CC)S(=O)(=O)c1cccc(NC(=O)c2cc(=O)[nH]c3ccccc23)c1 | 1.7 | -2.8 |
| CCCCc1ccc(NC(=O)N[C@@H](CC(C)C)C(=O)O)cc1 | 0.01 | 0.99 |
| c1ccc2oc(-c3ccc(Nc4nc(N5CCCCC5)nc(N5CCOCC5)n4)cc3)nc2c1 | 3.5 | 1.2 |
| CCOc1ccc(C(=O)Nc2nnn(CC)n2)cc1 | 0.26 | -0.47 |
| CC(c1ccccc1)N1CCc2[nH]c(=S)[nH]c(=O)c2C1 (stereo not given) | 1.5 | -0.33 |
| COC(=O)c1ccc(COc2ccc(/C=N/N3CCN(C)CC3)cc2)cc1 | 1 | 1.1 |
| CCOC(=O)COc1nc(Nc2ccccc2C)nc(N(C)C)n1 | 2.2 | 1.2 |
| COc1cc(NC(=O)C2CCCC2)c(OC)cc1Cl | 0.4 | -0.47 |
| COc1ccc(OC)c(-c2c3c([nH]c(=S)c2C#N)CCCC3)c1 | 0.31 | -0.13 |
| Cn1nccc1CNC(=O)c1c(Cl)cnn1C | 0.71 | -1.3 |
| Cc1cc(C)n(/N=C/c2cccc([N+](=O)[O-])c2)c(=O)c1 | 0.91 | -1.1 |
| Cc1cc(NS(=O)(=O)c2ccc(NS(=O)(=O)c3cc(C)c(Cl)cc3Cl)cc2)no1 | 1 | -1.7 |
| O=C(O)c1cccc(-c2ccc(/C=N/NC(=O)c3cccnc3)o2)c1 | 1.5 | 0.13 |
| Oc1ccc(-c2cn3cc(C(F)(F)F)ccc3n2)cc1 | 1.1 | -0.15 |
| COc1ccccc1CNc1ccc2nnc(CCNC(=O)c3ccccc3)n2n1 | 1.4 | -0.18 |
| CCC(Cc1ccccc1)n1c(=S)[nH]c2ccccc2c1=O (stereo not given) | 2.3 | 1.4 |
| COc1ccc(C(=O)Nc2ccc(N3CCN(c4ccc(OC)cc4)CC3)c(C#N)c2)cc1 | 0.42 | -0.11 |
| CN(NC(=O)COc1ccccc1)c1ccccc1 | 1.2 | 0.31 |
| Cn1ncc(Br)c1NC(=O)Nc1ccccc1 | 0.16 | 0.26 |
| O=C(COc1ccccc1Cl)NCCNC(=O)c1ccncc1 | 1.5 | -2 |
| CN1CCN(C(=O)c2cccn(Cc3ccc(C(F)(F)F)cc3)c2=O)CC1 | 0.27 | -1.8 |
| COc1ccc(CNC(=O)C(C)n2nc(C)c3c(C)n(-c4ccccc4)nc3c2=O)c(OC)c1 (stereo not given) | 2 | -1.3 |
| Cc1cccc2cc(/C=N/NC(=O)c3ccccc3O)c(Cl)nc12 | 0.54 | -2.3 |
| COc1ccc(C(=O)CSc2nnc(CNC(=O)c3ccccc3)o2)cc1 | 0.62 | 0 |
